fixLJ activator = activators of Burkholderia fixLJ two-component system, primary screen, B. multivorans, GFP reporter | B. multivorans fixK-promoter GFP reporter, 18 h; hits give high values | AID 1918990, 2023 | z-score (test concentration not listed) | actives 0.3% (n = 29,000);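 active means replicate mean overnight rise in green fluorescent reporter signal, 3 or more SD over negative controls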;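 further: score is relative to vehicle wells of the plate; 300 nL library stock went into each well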
* hit, by the source's call. These rows are one share of the data. The share of hits here may be higher or lower than overall.

Start of the listing, in advance:
Results for CCC(=O)N1c2ccc(S(=O)(=O)CCC(=O)NCc3cccc(OC)c3)cc2CC1C (stereo not drawn) ?
fixLJ activator: -1.4

Results for COc1cccc(-c2cc(C(=O)Nc3cnn(Cc4ccc(Cl)cc4Cl)c3)no2)c1 ?
fixLJ activator: 2.7

How did COc1ccccc1-c1nnc(C2CCN(C(=O)c3ccc(C)cc3)CC2)o1 do in these assays?
fixLJ activator: -0.58

Results, from the start:
Results for CCC(=O)N1c2ccc(S(=O)(=O)CCC(=O)NCc3cccc(OC)c3)cc2CC1C (stereo not drawn) ?
fixLJ activator: -1.4

Results for COc1cccc(-c2cc(C(=O)Nc3cnn(Cc4ccc(Cl)cc4Cl)c3)no2)c1 ?
fixLJ activator: 2.7

How did COc1ccccc1-c1nnc(C2CCN(C(=O)c3ccc(C)cc3)CC2)o1 do in these assays?
fixLJ activator: -0.58

How did CCCn1cc(S(=O)(=O)c2ccc(CC)cc2)c(=O)c2ccccc21 do in these assays?
fixLJ activator: -1.5

Results for CCCCC(CC)CNC(=O)CCCCn1c(=O)[nH]c2ccsc2c1=O (stereo not drawn) ?
fixLJ activator: -0.71

What do the screens show for `CC(=O)c1cccc(NC(=O)CCCSc2nc(-c3ccco3)cc(C(F)(F)F)n2)c1`?
fixLJ activator: -1

Results for COc1ccc(/C=C/C(=O)Nc2ccc(Cl)c(Cl)c2)cc1OC ?
fixLJ activator: 0.6

Results for Cc1ccc(O)c(C(=O)N2CCCC(c3ccn(CC(=O)O)n3)C2)c1 (stereo not drawn) ?
fixLJ activator: -3.8

Results for CCOc1ccc(C2C(C(N)=O)=C(C)Nc3nc(-c4cccc(Cl)c4)nn32)cc1OC (stereo not drawn) ?
fixLJ activator: -2.2

How did CCOc1cc(CNC(=O)c2cc(-c3ccc(Cl)s3)nc3ccccc23)ccc1OC do in these assays?
fixLJ activator: -1.4

Results for NC[C@@H]1O[C@H](O[C@H]2[C@@H](O)[C@H](O[C@@H]3[C@@H](O)[C@H](N)C[C@H](N)[C@H]3O[C@H]3O[C@H](CN)[C@@H](O)[C@H](O)[C@H]3N)O[C@@H]2CO)[C@H](N)[C@@H](O)[C@@H]1O ?
fixLJ activator: 0.31

How did CNC(=O)c1ccc(S(=O)(=O)NC(C)COc2ccccc2C)cc1 (stereo not drawn) do in these assays?
fixLJ activator: -0.49

How did Cc1cc(NS(=O)(=O)c2ccc(NC(=O)COc3c(C)ccc(C)c3C)cc2)nc(C)n1 do in these assays?
fixLJ activator: -1.5

Results for Cc1ccn2c(=O)c(C(=O)Nc3ccc(F)c(C(F)(F)F)c3)cnc2c1 ?
fixLJ activator: -0.47

Results for CN(CCO)C(=O)C1C[C@@](C)(C(=O)O)N(C)C1c1ccccc1Cl (stereo partly drawn) ?
fixLJ activator: -0.59

What do the screens show for `COc1ccc(F)cc1C(NC(=O)Cc1c[nH]c(=O)[nH]c1=O)C1CC(O)C1` (stereo not drawn)?
fixLJ activator: -0.18

Results for COc1ccc(NC(=O)Cn2c(CCC(=O)O)ccc2-c2ccccc2)cc1Cl ?
fixLJ activator: -2.5

Results for CCC1(C)Cc2c(sc3nc(SC)n(-c4ccc(C)cc4)c(=O)c23)CO1 (stereo not drawn) ?
fixLJ activator: -0.77

Results for NC(=O)c1c(NC(=O)c2cc(-c3ccc(F)cc3)on2)sc2c1CCCC2 ?
fixLJ activator: -0.5

Results for COc1ccc(NC(=O)CSc2nc(-c3cccs3)cc(C(F)(F)F)n2)c(OC)c1 ?
fixLJ activator: -0.25

How did CCOc1ccc(CN2C(=O)c3ccccc3Sc3ccc(C(=O)NCCCN4CCOCC4)cc32)cc1 do in these assays?
fixLJ activator: 0.76

What do the screens show for `O=C(CSc1oc(-c2cccs2)nc1S(=O)(=O)c1ccccc1)Nc1ccc(F)cc1`?
fixLJ activator: -1.9

Results for CC(=O)OCC1=C(C(=O)O)N2C(=O)[C@@H](NC(=O)Cc3cccs3)[C@H]2SC1 ?
fixLJ activator: -0.77

How did CC(C)Cc1cc(C(=O)NC2CCOCC2Oc2ccc(C#N)cc2)on1 (stereo not drawn) do in these assays?
fixLJ activator: 0.06

Of the compounds above, 2 have an NH in an aromatic ring:
Results for CCCCC(CC)CNC(=O)CCCCn1c(=O)[nH]c2ccsc2c1=O (stereo not drawn) ?
fixLJ activator: -0.71

What do the screens show for `COc1ccc(F)cc1C(NC(=O)Cc1c[nH]c(=O)[nH]c1=O)C1CC(O)C1` (stereo not drawn)?
fixLJ activator: -0.18

(listing goes on)
What do the screens show for `COc1ccc2nc3oc(C(=O)N4CCN(c5cc(C)ccc5C)CC4)cc3cc2c1`?
fixLJ activator: -1.3

How did Cc1ccc(NC(=O)C2CCN(C(=O)c3cnn(-c4ccccc4)c3-n3cccc3)CC2)cc1 do in these assays?
fixLJ activator: -0.43

How did CCOC(=O)c1cccc(NC(=O)c2cc3c(-c4cccc(OC)c4)nn(C)c3s2)c1 do in these assays?
fixLJ activator: -0.81

What do the screens show for `CC(O)c1ccc(-c2ccc(C(=O)NCCC(=O)N3CCCC3)cc2)cc1` (stereo not drawn)?
fixLJ activator: 0.58

How did COc1cccc(C2Nc3ccccc3-c3nnc(SCc4ccccc4)nc3O2)c1OC (stereo not drawn) do in these assays?
fixLJ activator: 0.55

What do the screens show for `O=C(Cc1ccccc1)Nc1sc2c(c1C(=O)Nc1ccc(Br)cc1)CCCC2`?
fixLJ activator: -0.88

How did CC(c1n[nH]c(=O)n1CCc1ccccc1F)n1cccn1 (stereo not drawn) do in these assays?
fixLJ activator: -1.8

What do the screens show for `CCc1nn(CCCC(=O)NCc2ccccc2Br)c(=O)c2cc3occc3n12`?
fixLJ activator: -0.42

Results for CC(C)OCCCNC(=O)CSc1c2c(nc3ccc(Cl)cc13)CCCC2 ?
fixLJ activator: -1.7

Results for CCOC(=O)C1CCN(c2c(C(=O)c3ccc(C)cc3)cnc3ccc(F)cc23)CC1 ?
fixLJ activator: -0.26

What do the screens show for `CN(Cc1cn[nH]c1C(=O)O)C1CCN(Cc2ccccc2)C1` (stereo not drawn)?
fixLJ activator: 0.76

How did COC(=O)c1ccc(C(=O)OC)c(NC(=O)c2ccc(-c3ccccc3)s2)c1 do in these assays?
fixLJ activator: 2.5

How did CSc1ccc(CCNC(=O)Cn2ncc3c(=O)oc4ccccc4c32)cc1 do in these assays?
fixLJ activator: -0.7

How did COC(=O)C1=C(C)N(C(C)C)C(=O)C1(NC(=O)c1ccc(C(C)(C)C)cc1)C(F)(F)F (stereo not drawn) do in these assays?
fixLJ activator: -0.12

Results for COc1ccc(-c2nc3n(n2)C(c2cccc(C)c2)C(C(N)=O)=C(C)N3)cc1OC (stereo not drawn) ?
fixLJ activator: 0.1

Results for Fc1ccc(-c2ccc(CNCCSc3nnnn3-c3ccccc3)o2)cc1Cl ?
fixLJ activator: -0.56

How did COCc1nnc(NC(=O)CN(C)Cc2c(C)noc2C)s1 do in these assays?
fixLJ activator: -0.71

How did CC(C)OC1CN(C(=O)Cc2nc3ccccc3[nH]2)CC1O (stereo not drawn) do in these assays?
fixLJ activator: 0.82

How did CCc1oc2c(NC(=O)N3CCN(CCOCCO)CC3)cccc2c1C do in these assays?
fixLJ activator: -0.1

What do the screens show for `CC(C)(C)n1ccc(C(=O)NC(Cn2cccn2)c2ccccc2)c1` (stereo not drawn)?
fixLJ activator: 0.26

What do the screens show for `CC(C)n1c(=N)c(C(=O)NCc2cccnc2)cc2c(=O)n3ccccc3nc21`?
fixLJ activator: -2.2

How did Cc1ccc2nc(C)c(C)c(C(=O)NCCC(C)n3ccnc3)c2c1 (stereo not drawn) do in these assays?
fixLJ activator: 0.25

Results for COC(C)c1nnc(SCC(=O)O)n1-c1ccc(C)cc1 (stereo not drawn) ?
fixLJ activator: 1.1

How did CCCCOc1ccc(CNC(=O)C2CCCN(c3nnc(-n4c(C)ccc4C)s3)C2)cc1 (stereo not drawn) do in these assays?
fixLJ activator: 0.68

How did O=C(Nc1ccc(C(F)(F)F)cc1)C(Cc1ccccc1)n1cccc1 (stereo not drawn) do in these assays?
fixLJ activator: -5

Results for COc1ccc(NC(=O)C2CCN(c3ccc(Sc4ccc(C)cc4)nn3)CC2)c(OC)c1 ?
fixLJ activator: 0.1

Results for COc1ccc(CCNC(=O)Cn2c(=O)n(-c3ccc(OC)c(OC)c3)c(=O)c3ccccc32)cc1OC ?
fixLJ activator: -1.6

Results for CCOc1ccc2oc(=O)cc(CN3CCN(c4ccc(OC)cc4)CC3)c2c1 ?
fixLJ activator: -2.3

What do the screens show for `O=C1Nc2c(c(=O)[nH]c(=O)n2-c2ccccc2)C1(NS(=O)(=O)c1ccc(Cl)cc1)C(F)(F)F` (stereo not drawn)?
fixLJ activator: 0.15

Results for Cc1ccc(N(CC(=O)NC(C)c2ccccc2)S(=O)(=O)c2c(C)noc2C)cc1 (stereo not drawn) ?
fixLJ activator: -0.2

What do the screens show for `CCCN(CCC)C(=O)CSc1c2c(nc3ccc(Cl)cc13)CCCC2`?
fixLJ activator: -0.44

Results for O=C(C1CCCN(S(=O)(=O)c2cccc3nsnc23)C1)N1CCN(c2ccccc2Cl)CC1 (stereo not drawn) ?
fixLJ activator: -0.36

Results for Cc1cc(C)c2oc(C(=O)Nc3sc4c(c3C(=O)NCc3ccco3)CCC4)cc(=O)c2c1 ?
fixLJ activator: -0.48

Results for CC1(C)O[C@H]2[C@@H](O1)[C@@H](C(=O)Nc1cc(F)ccc1F)O[C@@H]1OC(C)(C)O[C@@H]12 ?
fixLJ activator: -1.4

How did COc1cc(OC)cc(C(=O)Nc2cc3c(cc2N2CCCCC2)n(C)c(=O)n3C)c1 do in these assays?
fixLJ activator: -0.83

How did Cc1c(C(=O)NCc2nnnn2-c2ccccc2)n(C)c2ccc(F)cc12 do in these assays?
fixLJ activator: -0.93

Results for COC(=O)c1sc(NC(=O)/C=C/c2ccc(OC)c(OC)c2)c(C(=O)OC)c1C ?
fixLJ activator: -1.4

Results for CCc1ccc2oc(-c3cc(NC(=O)c4cccs4)ccc3Cl)nc2c1 ?
fixLJ activator: -0.51

Results for O=C(c1ccc(-c2ccccc2OCCn2ccnc2)cc1)N1CCOCC1 ?
fixLJ activator: -1

How did CCN1CCN(c2oc(/C=C/c3ccc(OC)c(OC)c3)nc2C#N)CC1 do in these assays?
fixLJ activator: -1.8

How did COc1ccc(-c2cc(C(=O)Nc3ccc4c(c3)OCO4)no2)cc1OC do in these assays?
fixLJ activator: -0.81

What do the screens show for `Cc1nn2c(NCc3nn[nH]n3)cc(-c3ccccc3)nc2c1C`?
fixLJ activator: -0.85

How did Cc1ccc(S(=O)(=O)N2CCN(Cc3ccccc3Cl)CC2)cc1 do in these assays?
fixLJ activator: 0.12

What do the screens show for `CCOc1ccc2c(c1)c(=O)c(C(=O)c1ccc3c(c1)OCO3)cn2Cc1cccc(F)c1`?
fixLJ activator: -1.1

How did O=C1CC(c2c(F)cccc2Cl)c2c(c3ccccc3oc2=O)O1 (stereo not drawn) do in these assays?
fixLJ activator: -2.1

Results for Cc1ccc(NC(=O)Cn2c(=O)nc(-c3ccccc3F)c3cc(Cl)ccc32)c(Br)c1 ?
fixLJ activator: -0.53

How did COCCCNC(=O)c1ccc2c(=O)n(Cc3ccc(OC)cc3)c(=O)[nH]c2c1 do in these assays?
fixLJ activator: -0.09

Results for COc1ccc(-c2nc(SCC(=O)Nc3ccc4c(c3)OCCO4)c(-c3ccc(F)cc3)[nH]2)cc1 ?
fixLJ activator: 0.04

3 entries out of the list, sorted by number of heavy atoms, falling:
How did CCOC(=O)c1cccc(NC(=O)c2cc3c(-c4cccc(OC)c4)nn(C)c3s2)c1 do in these assays?
fixLJ activator: -0.81

What do the screens show for `CC(C)(C)n1ccc(C(=O)NC(Cn2cccn2)c2ccccc2)c1` (stereo not drawn)?
fixLJ activator: 0.26

How did CC(c1n[nH]c(=O)n1CCc1ccccc1F)n1cccn1 (stereo not drawn) do in these assays?
fixLJ activator: -1.8

Next part
Results for CCNC(=O)CC1C(=O)N(c2cccc(OC)c2)C(=O)N1Cc1ccc(OC)c(OC)c1 (stereo not drawn) ?
fixLJ activator: 0.51

What do the screens show for `COc1ccnc(N2CCN(C(=O)Cc3cnc4c(C)cccn34)CC2)n1`?
fixLJ activator: -0.52

How did CSc1ccc(C2c3c(-c4ccccc4O)n[nH]c3C(=O)N2Cc2ccncc2)cc1 (stereo not drawn) do in these assays?
fixLJ activator: 0.32

Results for Cc1c(CCC(=O)NCCc2ccccc2)c(=O)oc2c(C)c(O)ccc12 ?
fixLJ activator: -0.76

How did CCOc1ccc(NS(=O)(=O)c2ccc3[nH]cc(C(=O)NCC4CCCO4)c(=O)c3c2)cc1 (stereo not drawn) do in these assays?
fixLJ activator: -0.4

How did Cc1ccc2oc(C(=O)Nc3sc4c(c3C(=O)NCc3cccnc3)CCCC4)cc(=O)c2c1 do in these assays?
fixLJ activator: -1.4

Results for CC(C)(C)OC(=O)N1CCC(c2nnc(SCc3ccccc3F)o2)CC1 ?
fixLJ activator: -1.9

Results for Cc1ccc(NC(=O)c2c(C(=O)Nc3ccccc3)sc3nc(C)cc(=O)n23)cc1 ?
fixLJ activator: -1.2

How did CCCCCCCCCCCCCCCC(=O)O[C@@H]1[C@@H](O)[C@@H](O)C([C@H](NC(=O)[C@@H]2C[C@@H](CCC)CN2C)[C@H](C)Cl)O[C@@H]1SC (stereo partly drawn) do in these assays?
fixLJ activator: -0.96

Results for Cc1cc(C)c(NC(=O)CSc2ncc(S(=O)(=O)c3ccc(C(C)(C)C)cc3)c(=O)[nH]2)c(C)c1 ?
fixLJ activator: -1.2

How did Cc1nc2c(cnn2-c2ccccc2Cl)c(=O)n1-c1ccc(C(C)C)cc1 do in these assays?
fixLJ activator: 0.01

Results for COc1ccc(Cn2c(=O)c3cccnc3n(Cc3cccc(F)c3)c2=O)cc1 ?
fixLJ activator: -2.3

How did CCCCCN1C(C(=O)c2ccccc2)=C(NC(=O)c2ccccc2Cl)c2ccccc2S1(=O)=O do in these assays?
fixLJ activator: -0.07

Results for COc1c(C)cccc1C(=O)N(CCO)Cc1nc[nH]c1C ?
fixLJ activator: 0.82

Results for CCOc1ccccc1NC(=O)c1sc2nc(-c3ccc(OC)cc3)ccc2c1N ?
fixLJ activator: -2.4

What do the screens show for `CN(C)c1cccc(C(=O)N2CCC(c3c[nH]c4ccccc34)(c3c[nH]c4ccccc34)CC2)c1`?
fixLJ activator: -0.58

Source: PubChem BioAssay
